# Compound activity from PubChem.
# GIV-Gai inh = inhibitors of GIV peptide binding to Galpha-i3, primary screen, biochemical, fluorescence polarization, FITC-GIV GBA peptide, rat Galphai3; 90 min; stronger effect = lower value; scaled: aluminum fluoride 0%, vehicle 100%; Guanine nucleotide-binding protein G(i) subunit alpha-3 (Rattus norvegicus), P08753; AID 1224905, 2016; percent of control (FP), % (test concentration not listed); actives 0.42% (n = 210,000);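 active = replicate mean at 85% of control or lower, very high polarization wells dropped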;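 also: wells of about 15 µL received 100 nL stock; the first replicate is given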
# Target sequence (P08753 whole entry, looked up): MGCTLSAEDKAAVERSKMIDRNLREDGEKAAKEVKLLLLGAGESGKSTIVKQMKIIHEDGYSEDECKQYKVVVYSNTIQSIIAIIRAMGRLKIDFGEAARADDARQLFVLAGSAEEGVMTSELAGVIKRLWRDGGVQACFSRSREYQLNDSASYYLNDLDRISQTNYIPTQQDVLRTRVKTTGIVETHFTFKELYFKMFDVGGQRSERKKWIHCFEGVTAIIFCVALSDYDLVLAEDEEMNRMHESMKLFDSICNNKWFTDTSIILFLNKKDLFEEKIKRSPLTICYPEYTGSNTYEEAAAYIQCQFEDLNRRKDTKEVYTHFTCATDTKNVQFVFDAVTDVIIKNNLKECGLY
# Numbers without * were called inactive. Not all compounds are listed, so the mix of outcomes need not match the whole.
GIV-Gai inh | structure
107 | O=C(CSc1nc2ccccc2c(=O)n1CCCC(=O)N1CCN(c2ccccc2)CC1)NCc1ccccc1
106 | CCOc1ccc(NC(=O)c2ccc(N3CC4CC(C3)c3cccc(=O)n3C4)c(NC(=O)c3ccccc3Cl)c2)cc1 (stereo not given)
100 | Cc1nc(N2CCOCC2)c2c(C)c(C(=O)NCc3ccc(F)cc3)sc2n1
96 | CC(C)N1C(=O)c2ccccc2Sc2cc(NC(=O)C3CC(=O)N(c4ccccc4)C3)ccc21 (stereo not given)
102 | CCc1nc(-c2csc(S(=O)(=O)N3CCC4(CC3)OCCO4)c2)no1
131 | COc1ccc(/C=C2\N=C(c3ccc(Cl)cc3)N(c3cc(Cl)ccc3C)C2=O)cc1OC
113 | CN(C)c1ccc(-c2nc3cnc(Br)cn3c2Nc2ccc3c(c2)OCO3)cc1
96 | CCc1ccc(CN2CCCC2c2c(C)noc2C)cc1 (stereo not given)
118 | Cc1ccccc1NC(=O)CSc1nc2c(c(-c3ccncc3)c1C#N)CCCC2
115 | Cc1cc2nc(COc3ccc(Cl)cc3NC(=O)c3ccc4c(c3)OCO4)cc(=O)n2o1
105 | O=C(C1CC(=O)N(C2CCCCC2)C1)N1CCCC1 (stereo not given)
106 | CCc1nc(CN2C(=O)COc3ccc(S(=O)(=O)NCC4CCCO4)cc32)no1 (stereo not given)
100 | CCOc1ccc(-n2nnc3c(N4CCN(S(=O)(=O)CC)CC4)ncnc32)cc1
98 | O=C(CN1C(=O)c2ccccc2C1=O)N1CCN(c2ncnc3c2nnn3-c2cccc(F)c2)CC1
115 | Cc1nc(SCC2=C(C(=O)OC(C)C)C(c3ccc(F)cc3)C(C#N)=C(N)O2)c(C#N)c(C)c1C (stereo not given)
103 | CCOC(=O)c1c(NC(=S)Nc2ccccc2OC)sc2c1CC(C)(C)OC2
109 | Clc1cccc(Cl)c1-c1nnc2ccc3ccccc3n12
102 | Cc1ccc2c(c1)N(C(=O)C1CCCO1)CC(C)O2 (stereo not given)
105 | CS(=O)(=O)c1cc([N+](=O)[O-])c(Sc2nc3ccccc3s2)c([N+](=O)[O-])c1
108 | CC(=O)C1=C(C)NC(SCc2cccc([N+](=O)[O-])c2)=C(C#N)C1CC(C)C (stereo not given)
99 | COc1ccc(-c2noc3ncnc(N4CCC(C(=O)N5CCc6ccccc6C5)CC4)c23)cc1
97 | CCOc1c(C(=O)OC)sc2ccc(NC(=O)c3ccc(OC)c(OC)c3)cc12
98 | CN(C)c1nc2ncn3c(=O)n(CC(=O)NCc4ccccc4Cl)nc3c2s1
102 | Cc1cc(C)n(-c2cc(N3CCN(c4ccc(F)cc4)CC3)ncn2)n1
108 | O=C(NCCN1CCOCC1)C1CCN(c2cncnc2N2CCCC2)CC1
120 | CCc1ccc(C2(c3ccc(CC)cc3)CC2C(=O)Nc2cccc(Br)c2)cc1 (stereo not given)
99 | CCc1cc(C2CCCN2Cc2cc(Br)ccc2O)on1 (stereo not given)
100 | CCOC(=O)c1nc(Nc2cccc(Cl)c2)c2c(C)c(C)n(-c3ccccc3)c2n1
100 | CCOC(=O)C1=C(c2ccccc2)N=c2s/c(=C\c3cccnc3)c(=O)n2C1c1ccc2c(c1)OCO2 (stereo not given)
107 | Cc1cccc(C(=O)N2N=C(C3CCCCC3)CC2(O)C(F)(F)F)c1 (stereo not given)

GIV-Gai inh | structure
109 | CC1(C)CC(=O)C2=C(C1)Nc1ccc3ccccc3c1C2c1cc([N+](=O)[O-])ccc1Cl (stereo not given)
112 | O=C(Nc1cc(Cl)ccc1Oc1ccc(Br)c2ccccc12)c1cc(Cl)cc(Cl)c1O
108 | CN(C)C1=NC(C(F)(F)F)(C(F)(F)F)N=C(c2ccco2)O1
101 | O=C(CSc1nc2ccccc2s1)Nc1ccccc1Cl
98 | COc1ccc(N2CCN(C(=O)CSc3nccc4c3ccn4Cc3ccc(F)cc3)CC2)cc1
108 | COc1ccc(C(=O)COC(=O)c2ccc(N3C(=O)C4CC=CCC4C3=O)cc2)cc1[N+](=O)[O-] (stereo not given)
95 | CC(=O)N1CCC(=O)N(C(=O)c2ccccc2)c2ccccc21
82* | CCOc1cc(C(c2c(C)[nH]n(-c3ccccc3)c2=O)c2c(C)[nH]n(-c3ccccc3)c2=O)ccc1OCc1ccccc1
114 | O=S(=O)(c1ccc(-c2cnc(C3CCC3)o2)s1)N1CCCCC1
107 | CCOc1cc(C(c2c(C)[nH]n(-c3ccccc3)c2=O)c2c(C)[nH]n(-c3ccccc3)c2=O)ccc1OC(=O)c1ccccc1Cl
107 | Cc1ccc(-c2ccc(C(=O)NCc3ccc4c(c3)OCO4)cn2)cc1
106 | COCCCNC(=O)CSc1nc2ccccc2c(=O)n1CCCN1CCN(c2cccc(Cl)c2)CC1
104 | O=C(NCc1ccccc1)c1nn2c(c1Br)NC(c1ccccc1)CC2C(F)(F)F (stereo not given)
98 | Cn1nc2n(CCC(=O)NC3CCCCC3)c(=O)c3ccccc3n2c1=O
109 | CC1(C)CC(=O)C2=C(C1)N(c1cccc([N+](=O)[O-])c1)C(N)=C(C#N)C2c1cccc([N+](=O)[O-])c1 (stereo not given)
115 | O=C(NC(Cc1c[nH]c2ccccc12)C(=O)NC1CCCCCC1)OCc1ccccc1 (stereo not given)
121 | COc1ccc(-c2cn3nc4c(nc3n2)CCCC4)cc1
104 | CCOC(=O)c1ccc(Nc2c(C(=O)OCC)cnc3c(C)cc(C)cc23)cc1
107 | CC(=O)c1c(C)oc2ccc(N(C(=O)c3ccncc3)S(=O)(=O)c3ccccc3)cc12
121 | O=C1c2ccc3c4c(ccc(c24)C(=O)N1c1ccc(O)cc1)C(=O)N(c1ccc(O)cc1)C3=O
101 | Cc1cc(Br)ccc1NS(=O)(=O)c1cc(-c2nc(C)c(C)s2)cs1
106 | COc1ccc(C(=O)Nc2nnc(C)s2)c(OC)n1
109 | Cc1cccc(Nc2cc(N3CCCC3)c3noc4c3c2C(=O)c2ccccc2-4)c1
106 | NC(=O)c1c(NC(=O)c2cccnc2Cl)sc2c1CCCCC2
112 | CCOC(=O)c1c(CN2CCCCC2C)n(-c2ccccc2)c2cc(Br)c(OC(C)=O)cc12 (stereo not given)
121 | O=S(=O)(NCc1ccc2c(c1)OCO2)c1ccc2c(c1)-c1oncc1CO2
106 | CCN(CC)S(=O)(=O)c1ccc2nc(N3CCN(C4CCCCC4)CC3)cnc2c1
104 | Cc1nc2ncnn2c(N2CCC(C)CC2)c1C
103 | NS(=O)(=O)c1ccc(NC(=O)CN2C(=O)C(C(=O)N3CCCC3)Sc3ccccc32)cc1 (stereo not given)
107 | CCOC(=O)c1c(-c2ccccc2)oc2ccc(NS(=O)(=O)c3ccc(F)cc3)cc12

GIV-Gai inh | structure
114 | O=S(=O)(c1ccccc1)c1nc(COc2ccc(Cl)cc2Cl)oc1NCc1ccccc1
104 | COc1cc(/C=C2\N=C(c3ccccc3)OC2=O)ccc1OCc1c(C)no[n+]1[O-]
101 | CCCn1c(=O)[nH]c2c(C(=O)N3CCC(C)CC3)snc2c1=O
106 | COC(=O)c1ccc2c(=O)n(CCc3ccc(OC)c(OC)c3)c(SCC(=O)Nc3cccc(OC)c3)nc2c1
114 | COc1cc(C(=O)NCCN2CCCCC2)ccc1OC1OC(COC(C)=O)C(OC(C)=O)C(OC(C)=O)C1OC(C)=O (stereo not given)
103 | CN(CC1(C)CCOCC1)S(=O)(=O)c1ccc(C(F)(F)F)cc1
100 | COc1cccc(-c2cc(=O)n3c4ccccc4n(CC(=O)Nc4cc(OC)ccc4OC)c3n2)c1
109 | O=C(Nc1cccc(C(F)(F)F)c1)c1ccc(N2CC3CC(C2)c2cccc(=O)n2C3)c(NC(=O)c2cccnc2)c1 (stereo not given)
104 | COc1ccc(/C=C2\C=C(c3ccccc3)N(c3ccc(Nc4ccccc4)cc3)C2=O)cc1Br
103 | Cc1cccc2c1CC(C)(C)N=C2C1=C(O)CC(C)(C)CC1=O
105 | N#CC1=C(N)OC2=C(C(=O)CCC2)C1c1ccc(OC(=O)c2cccs2)cc1 (stereo not given)
99 | N#CC1=CN(c2ccc(F)cc2F)c2ccccc2S1(=O)=O
106 | Cn1c(=O)n(C)c2cc(S(=O)(=O)Nc3cccc(-c4nnc(-c5ccccc5)o4)c3)ccc21
104 | Nc1nc(N)c2ncn(C3CC(O)C(CO)O3)c2n1 (stereo not given)
113 | COc1cccc(C(=O)NC(c2cccc([N+](=O)[O-])c2)c2cc(Cl)c3cccnc3c2O)c1 (stereo not given)
108 | CCOc1ccc2c(c1)C(=C1SC(C(=O)OC)=C(C(=O)OC)S1)C(=S)C(C)(C)N2C(=O)C(C)CC (stereo not given)
98 | CCOC(=O)C1=NN(c2cccc(Cl)c2)C2(S1)c1ccccc1C(c1ccc(Br)cc1)=NN2c1ccccc1 (stereo not given)
104 | CC1CCN(C(=O)c2cc3c(s2)CCC(C(=O)NCCN2CCCCC2)C3)CC1 (stereo not given)
106 | O=c1n(Cc2cc(F)cc(F)c2)nc2c(S(=O)(=O)N3CCCC3)cccn12
105 | COc1cc(C(=O)OCCn2c(=O)c3c(nc(N4CCNCC4)n3C)n(C)c2=O)cc(OC)c1OC
98 | Cc1nc2cc(-c3noc(-c4ccc(Br)o4)n3)ccc2o1
106 | O=C(NCc1ccc(Cl)cc1)C1CCCN(c2nn3c(=O)c4c(nc3s2)CCCC4)C1 (stereo not given)
100 | CC(C)OCCCNC(=O)Cn1c(=O)c(=O)n(C)c2ncccc21
99 | CCOc1ccc(NC(=O)c2sc3nc4c(c(-c5ccco5)c3c2N)CCCC4)cc1
101 | CCOC(=O)c1c(-c2ccccc2)oc2ccc(OCc3c(F)cccc3Cl)cc12
99 | COc1cccc(NC(=O)C2CCN(Cc3noc(-c4ccc(C)cc4)n3)CC2)c1
103 | CC(C)c1nnc(-c2coc(S(=O)(=O)N3CCC(N4CCCCC4)CC3)c2)o1
111 | Clc1ccc(-c2cn3nc(-c4ccccc4)c(-c4ccccc4)nc3n2)c(Cl)c1
100 | CC1(C)CC(=O)C2=C(C1)c1c(ccc3ccccc13)NC2c1ccc(OCc2c(F)cccc2Cl)cc1 (stereo not given)
96 | O=C(Nc1ccccc1Cl)N1CCN(Cc2cc(=O)n3nc(-c4cccc(F)c4)sc3n2)CC1

GIV-Gai inh | structure
98 | CCCNC(=O)c1n[nH]c2c1CCCCCC2
109 | O=C(Nc1ccc(-c2nc(-c3ccccc3)co2)cc1)Nc1ccc2c(c1)OCCO2
117 | CCOC(=O)C1C(c2ccc([N+](=O)[O-])cc2)NC(=S)NC1(C)O (stereo not given)
114 | Fc1cccc(-c2noc(-c3cc(N4CCN(c5ccccn5)CC4)nc4ccccc34)n2)c1
98 | CC1CCN(CCCNC(=O)c2cc3c(s2)CN(C(C)C)C3)CC1
99 | CC1CCN(S(=O)(=O)c2ccc(CNC(=O)c3cccs3)s2)CC1
107 | CN1CCN(c2cc3c(nn2)Oc2cc(N)ccc2N3C)CC1
119 | CCOC(=O)c1c(C)oc2ccc(N(C(=O)c3ccncc3)S(=O)(=O)c3ccccc3)cc12
103 | CCCNC(=O)N1CCCC1c1c(C)noc1C (stereo not given)
105 | COc1ccc(N2CCN(c3ncc(S(=O)(=O)c4ccc(C)c(C)c4)c(N)n3)CC2)cc1
114 | O=[N+]([O-])c1cc(C(F)(F)F)ccc1N1CCN(S(=O)(=O)c2cccc3nsnc23)CC1
103 | CN(C)C(=O)c1ccc2c(c1)nc(CN(C)S(=O)(=O)c1ccc(Br)cc1)n2C
107 | Cc1nn(-c2ccc(F)cc2)c2sc(C(=O)OCc3ccc4c(c3)OCO4)cc12
97 | Cc1ccc2cc3c(nc2c1)-c1ccccc1C3=Nc1ccccc1
116 | CCOC(=O)c1ccc(C(=O)N(NC(=O)C(O)(c2ccc(Cl)cc2)c2ccc(Cl)cc2)c2ccccc2)cc1
105 | CNC(=O)C1CCCN(C(=O)c2ccc(NS(=O)(=O)c3ccc(C(C)(C)C)cc3)cc2)C1 (stereo not given)
107 | CN1c2ccccc2-c2ccccc2C12C=Cc1c(ccc3ccccc13)O2 (stereo not given)
112 | Cc1cc2c(cc1[N+](=O)[O-])-c1c(ssc1=S)C(C)(C)N2
100 | CC(C)n1c(=O)[nH]c2c(C(=O)N3CCSCC3)snc2c1=O
106 | Cc1ccc(N2CCN(S(=O)(=O)c3ccc4[nH]cc(C(=O)O)c(=O)c4c3)CC2C)cc1 (stereo not given)
100 | c1ccc(-c2nc(-c3ccccc3)c(-c3ccccc3)[nH]2)cc1
105 | COc1ccc(CCNC(=O)CSc2nc3n[nH]c(C)c3c(=N)n2-c2cc(Cl)ccc2C)cc1OC
103 | CCc1ccccc1NC(=O)CSC1=C(C#N)C(c2ccc(C)o2)C2=C(CCCC2=O)N1 (stereo not given)
103 | CC(C)NC(=O)N1CCCN(c2nc3cc(Br)ccc3n3cccc23)CC1

# Some of the entries above in another layout:
SMILES	GIV-Gai inh
CCOC(=O)c1ccc(C(=O)N(NC(=O)C(O)(c2ccc(Cl)cc2)c2ccc(Cl)cc2)c2ccccc2)cc1	116
CNC(=O)C1CCCN(C(=O)c2ccc(NS(=O)(=O)c3ccc(C(C)(C)C)cc3)cc2)C1 (stereo not given)	105
CN1c2ccccc2-c2ccccc2C12C=Cc1c(ccc3ccccc13)O2 (stereo not given)	107
Cc1cc2c(cc1[N+](=O)[O-])-c1c(ssc1=S)C(C)(C)N2	112
CC(C)n1c(=O)[nH]c2c(C(=O)N3CCSCC3)snc2c1=O	100
Cc1ccc(N2CCN(S(=O)(=O)c3ccc4[nH]cc(C(=O)O)c(=O)c4c3)CC2C)cc1 (stereo not given)	106

# Some of these compounds in order of SMILES length, lowest first:
GIV-Gai inh | structure
101 | Cc1cc(Br)ccc1NS(=O)(=O)c1cc(-c2nc(C)c(C)s2)cs1
100 | Cc1nc(N2CCOCC2)c2c(C)c(C(=O)NCc3ccc(F)cc3)sc2n1
109 | O=C(Nc1ccc(-c2nc(-c3ccccc3)co2)cc1)Nc1ccc2c(c1)OCCO2
108 | CCOc1ccc2c(c1)C(=C1SC(C(=O)OC)=C(C(=O)OC)S1)C(=S)C(C)(C)N2C(=O)C(C)CC (stereo not given)
